Assay outcomes: PubChem BioAssay, National Center for Advancing Translational Sciences (NCATS)
FEN1 inhibitor: blocks human flap endonuclease 1 | P39748 | Recombinant FEN1 flap cleavage, fluorescence, 15 min | Potency, µM (top dose mostly 114 µM), for the others: top-dose activity change, negative = inhibition, usual class: inhibitors | 390,000 compounds, 0.35% hits | AID 588795; note: nearly all actives have a fitted effect of over 65% in size
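Compounds are tested as a concentration series against 10 nM FEN1; after a 15 min room-temperature preincubation, 50 nM substrate starts cleavage, with plate reads at 0 and 15 min. Normalized responses are fitted by a Hill equation.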
KAT2A inh: GCN5L2 (KAT2A) acetyltransferase inhibition; Q92830; GCN5L2 HAT assay, ThioGlo1 CoA-SH fluorescence; Potency, µM (doses to about 58.9 µM), for inactives: at the top dose activity change, negative = inhibition, hits mostly inhibitors; 390,000 compounds, 0.21% hits; AID 504327
Target sequence (Q92830 whole entry, looked up): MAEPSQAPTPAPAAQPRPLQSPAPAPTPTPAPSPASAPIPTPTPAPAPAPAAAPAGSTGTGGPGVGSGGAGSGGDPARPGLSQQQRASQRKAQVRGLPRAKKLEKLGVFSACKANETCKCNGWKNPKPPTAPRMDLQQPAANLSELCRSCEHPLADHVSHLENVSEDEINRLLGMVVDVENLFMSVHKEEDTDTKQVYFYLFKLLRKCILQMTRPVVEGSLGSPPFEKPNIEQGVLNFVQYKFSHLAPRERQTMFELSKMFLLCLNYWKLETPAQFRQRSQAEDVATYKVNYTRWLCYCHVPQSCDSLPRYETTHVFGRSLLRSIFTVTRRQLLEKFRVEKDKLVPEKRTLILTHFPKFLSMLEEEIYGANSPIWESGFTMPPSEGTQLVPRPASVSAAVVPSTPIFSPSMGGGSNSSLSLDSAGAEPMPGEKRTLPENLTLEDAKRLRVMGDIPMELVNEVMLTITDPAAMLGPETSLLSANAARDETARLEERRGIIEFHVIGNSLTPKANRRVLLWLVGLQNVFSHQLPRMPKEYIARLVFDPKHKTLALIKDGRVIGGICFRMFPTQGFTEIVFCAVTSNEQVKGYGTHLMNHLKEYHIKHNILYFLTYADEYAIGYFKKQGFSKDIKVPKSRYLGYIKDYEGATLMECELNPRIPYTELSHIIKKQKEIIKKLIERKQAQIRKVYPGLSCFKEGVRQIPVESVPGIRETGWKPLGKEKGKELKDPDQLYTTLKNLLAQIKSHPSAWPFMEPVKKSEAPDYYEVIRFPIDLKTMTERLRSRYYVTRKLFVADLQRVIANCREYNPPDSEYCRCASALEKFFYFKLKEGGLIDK
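GCN5L2 (20 nM) in 50mM HEPES pH 7.5, 0.1mM EDTA, 0.01% Tween-20 preincubated 15 min with compounds at room temperature. Reaction started with H3(1-25) 75uM, acetyl-CoA 70uM, ThioGlo1 50uM; CoA-thiol fluorescence (Ex340/Em540) read at 0 and 20 min.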
An asterisk follows results filed as active; ? = inconclusive; nt = not tested or not shown; & = joins results of further samples. Calls come from the whole dose curve; as a rule, active = well fitted curve in the direction sought with a large enough effect; inconclusive = small, poorly fitted or top-dose-only effect, or another doubt; inactive = no such curve, though single readings can be large; an effect the other way counts as inactive or inconclusive. % is set by controls: 0 for no effect and ±100 for the full control effect; potency is the fitted concentration of half-maximal effect.

Compound	FEN1 inhibitor	KAT2A inh
Cc1ccc(/C=N/NC(=O)c2nnn(-c3nonc3N)c2CSc2ccccc2)s1	5%	3%
CC1(C)Cc2ccccc2-c2nc(CN3CCOCC3)[nH]c(=O)c21	4%	0%
COC(=O)c1ccc(NC(=O)c2ccc3nc(C)sc3c2)cc1	6%	-4%
COc1ccccc1NC(=O)CCCC(=O)OC(C)C(=O)c1ccccc1 (configuration not stated)	35%	-1%
CC(C)c1ccc(NC(=O)NCc2cccnc2)cc1	1%	-4%
Cc1ccc(NC(=O)COc2cccc3ccc(C)nc23)c(Br)c1	2%	-4%
CSc1cccc(NC(=O)CNS(=O)(=O)c2ccccc2)c1	1%	-3%
CNC(=O)c1ccccc1NC(=O)C1CC(=O)N(C(C)C)C1 (configuration not stated)	-2%	?
Nn1c(Cc2cccc3ccccc23)nnc1SCCOc1ccc(F)cc1	-1%	-3%
CC1=NN2C(=N)/C(=C\c3cc(C)n(Cc4ccccc4)c3C)C(=O)N=C2S1	-24%	-6%
COc1ccc(C(=O)N2CC3(CC(c4cccc(NC(=O)COc5ccc(Cl)cc5)c4)=NO3)C[C@@H]2C(N)=O)cc1 (some centres not stated)	4%	0%
Cc1c(Cl)c([N+](=O)[O-])nn1Cc1ccc(C(=O)Nc2ccc(Cl)cn2)o1	-4%	-5%
CCCOc1ccc(/C=C/C(=O)NCc2ccccc2)cc1	-5%	0%
CN(Cc1ccccc1)C(=O)c1ccccc1NC(=O)C1CC1	11%	-10%
CCOC(=O)CN1C(=O)NC2(CCCc3ccccc32)C1=O (configuration not stated)	-14%	-3%
CC(=O)c1ccc(NC(=O)C2CC(=O)N(Cc3ccccc3)C2)cc1 (configuration not stated)	-4%	4%
O=C(O)CC(O)C(=O)O (configuration not stated)	-7%	0%&-1%
O=c1c2ccccc2oc2nc(-c3ccco3)n(CCc3ccccc3)c(=O)c12	nt	-3%
CCOC(=O)N1CCC(NC(=O)CS(=O)(=O)Cc2nc(-c3ccc(C)cc3)oc2C)CC1	-1%	-10%
CCOC(=O)C1CCN(CCC(=O)Nc2ccc(C)cc2)CC1	13%	-7%
Cc1ccccc1-n1nnnc1SCC(=O)c1c(N)n(C2CC2)c(=O)[nH]c1=O	-7%	-8%
COCCN1CCN(C(=O)C2CCC(=O)N(Cc3ccccc3F)C2)CC1 (configuration not stated)	-1%	-12%
CC(=O)Nc1ccc(C(=O)Nc2cc(C)on2)cc1	4%	10%
CCc1ccc(NC(=O)C(C)OC(=O)c2ccc(-n3cnnn3)cc2)cc1 (configuration not stated)	2%	2%
CC(=O)N1CCc2cc(S(=O)(=O)CCC(=O)O)ccc21	1%	-3%
Cc1nc2nc(Cc3ccccc3)[nH]n2c(=O)c1Cl	-9%	-16%
COc1ccc(NC(=O)CCn2c(=O)c3cccn3c3ccccc32)cc1	-18%	-4%
Cc1c(Cl)cccc1N1C(=O)C(N2C(=O)c3cccc([N+](=O)[O-])c3C2=O)C1c1cccs1 (configuration not stated)	-21%	-7%
CCOC(=O)c1c(NC(=S)NC(=O)c2cnn(CC)c2)sc2c1CCC(C)C2 (configuration not stated)	-1%	15%
O=C(N/N=C/c1ccc([N+](=O)[O-])cc1)c1ccccc1OCc1ccccc1	-21%	-10%
COC(=O)C1=C(C(=O)OC)[C@@H]2N(Cc3ccccc3)c3ccccc3[C@@]23C[C@@H](C(=O)OC)N(C(=O)COCc2ccccc2)C3=N1	3%	-4%
O=C(CSc1nnc(NC(=O)C2CC(=O)N(c3ccc(F)cc3)C2)s1)NCc1ccco1 (configuration not stated)	-13%	-9%
O=C1NCCCC1C(=O)N/N=C/c1cccc(O)c1 (configuration not stated)	2%	0%
CCC(=O)N1CCc2nc(-c3ccccc3)sc2C1	5%	16%
CCOc1ccccc1NC(=O)CSc1nc2cccnc2n1C	3%	-1%
COc1ccccc1C1(CCNC(C)c2cccs2)CCOC(C(C)C)C1 (configuration not stated)	8%	2%
CCOC(=O)C1(Cc2ccccc2C)CCCN(C(=O)CCn2nccc2C)C1 (configuration not stated)	12%	0%
CCn1cc(C2=NOC(C(=O)Nc3c(C)nn(Cc4ccc(F)cc4)c3C)C2)c(C)n1 (configuration not stated)	-4%	-13%
COc1ccccc1NC1=NC(c2ccc(Cl)cc2)N=C(N)N1 (configuration not stated)	-2%	-3%
COc1cc(/C=N/n2c(C)n[nH]c2=S)ccc1OCc1ccc(F)cc1	13%	1%
CNC(=O)COC(=O)c1ccccc1Nc1ccccc1	-1%	-3%
CC1CC1C(=O)OCC(=O)NNC(=O)COc1ccc(Br)cc1 (configuration not stated)	-11%	-2%
COc1ccc(-c2csc(NC(=O)C3COc4ccccc4O3)n2)cc1OC (configuration not stated)	5%	-28%
Cc1cc(-c2ccc(C)c(S(=O)(=O)NCCc3ccco3)c2)on1	-8%	-21%
CCCc1nc(S(=O)(=O)Cc2ccc(Cl)cc2Cl)n[nH]1	3%	-1%
NS(=O)(=O)c1ccc(NC(=O)c2cc(Cl)ccc2Cl)cc1	8%	-6%
CCc1cccc(NC(=O)CCC(=O)O)c1	-8%	-1%
O=C(c1cccc(F)c1)N1CCC(c2nc3ccccc3s2)CC1	-18%	2%
O=C1CN(C(=O)COc2c(Cl)cccc2Cl)c2ccccc2N1	10%	0%
CC(=O)NNc1[nH]c2c(c(=O)c1[N+](=O)[O-])c(=O)n(C)c(=O)n2C	13%	-9%
O=C(COc1ccc(Cl)cc1Br)NC(=O)NCc1ccccc1	9%	22%
CCCNC(=S)Nc1ccc(F)cc1F	-3%	-2%
CC(=O)C1=C(O)C(=O)N(c2cc(C(C)(C)C)on2)C1c1ccc(C(C)C)cc1 (configuration not stated)	-7%	-3%
Clc1ccc(CSc2nnc(/C=C/c3ccccc3)o2)cc1	-12%	0%
Cc1cc(NC(=O)C(C)SCC(=O)Nc2cc(C(F)(F)F)ccc2N2CCCCC2)no1 (configuration not stated)	3%	-17%
CN1Cc2cc(C(=O)c3ccccc3O)cnc2NC1=O	0%	-8%
CCCCNCc1ccc(SC)cc1	-2%	-6%
CCS(=O)(=O)N1CCN(Cc2ccncc2)CC1	8%	3%
CCC1Oc2ccc(C)cc2N(CC(=O)NCc2cccs2)C1=O (configuration not stated)	4%	-4%
CCN(CC(=O)Nc1c(F)cccc1F)C(=O)CNC(=O)c1ccc(C)s1	-1%	-12%

23 of the compounds above, with two lines to a compound:
Each structure is followed by: FEN1 inhibitor, KAT2A inh
CCn1cc(C2=NOC(C(=O)Nc3c(C)nn(Cc4ccc(F)cc4)c3C)C2)c(C)n1 (configuration not stated)
    -4%, -13%
COc1ccccc1NC1=NC(c2ccc(Cl)cc2)N=C(N)N1 (configuration not stated)
    -2%, -3%
COc1cc(/C=N/n2c(C)n[nH]c2=S)ccc1OCc1ccc(F)cc1
    13%, 1%
CNC(=O)COC(=O)c1ccccc1Nc1ccccc1
    -1%, -3%
CC1CC1C(=O)OCC(=O)NNC(=O)COc1ccc(Br)cc1 (configuration not stated)
    -11%, -2%
COc1ccc(-c2csc(NC(=O)C3COc4ccccc4O3)n2)cc1OC (configuration not stated)
    5%, -28%
Cc1cc(-c2ccc(C)c(S(=O)(=O)NCCc3ccco3)c2)on1
    -8%, -21%
CCCc1nc(S(=O)(=O)Cc2ccc(Cl)cc2Cl)n[nH]1
    3%, -1%
NS(=O)(=O)c1ccc(NC(=O)c2cc(Cl)ccc2Cl)cc1
    8%, -6%
CCc1cccc(NC(=O)CCC(=O)O)c1
    -8%, -1%
O=C(c1cccc(F)c1)N1CCC(c2nc3ccccc3s2)CC1
    -18%, 2%
O=C1CN(C(=O)COc2c(Cl)cccc2Cl)c2ccccc2N1
    10%, 0%
CC(=O)NNc1[nH]c2c(c(=O)c1[N+](=O)[O-])c(=O)n(C)c(=O)n2C
    13%, -9%
O=C(COc1ccc(Cl)cc1Br)NC(=O)NCc1ccccc1
    9%, 22%
CCCNC(=S)Nc1ccc(F)cc1F
    -3%, -2%
CC(=O)C1=C(O)C(=O)N(c2cc(C(C)(C)C)on2)C1c1ccc(C(C)C)cc1 (configuration not stated)
    -7%, -3%
Clc1ccc(CSc2nnc(/C=C/c3ccccc3)o2)cc1
    -12%, 0%
Cc1cc(NC(=O)C(C)SCC(=O)Nc2cc(C(F)(F)F)ccc2N2CCCCC2)no1 (configuration not stated)
    3%, -17%
CN1Cc2cc(C(=O)c3ccccc3O)cnc2NC1=O
    0%, -8%
CCCCNCc1ccc(SC)cc1
    -2%, -6%
CCS(=O)(=O)N1CCN(Cc2ccncc2)CC1
    8%, 3%
CCC1Oc2ccc(C)cc2N(CC(=O)NCc2cccs2)C1=O (configuration not stated)
    4%, -4%
CCN(CC(=O)Nc1c(F)cccc1F)C(=O)CNC(=O)c1ccc(C)s1
    -1%, -12%

Further records follow:
Compound	FEN1 inhibitor	KAT2A inh
O=C(CCCSc1nc2sc3c(c2c(=O)[nH]1)CCC3)NCCO	1%	-1%
Nn1c(-c2ccc(F)cc2)nc2ccccc2c1=O	0%	-5%
CC(C)CN(C(=O)CSc1nnnn1-c1ccccc1)c1c(N)n(CC(C)C)c(=O)[nH]c1=O	2%	-14%
COc1ccc(-c2nnc3n2CCCCC3)cc1	4%	-3%
Cc1cccc(NC(=O)Nc2ccc(C#N)cc2)n1	12%	-8%
CCOC(=O)c1ccc2nc(NC(=O)C(C)C)sc2c1	-8%	-8%
COC(=O)N1CCC2(CCN(C(=O)Nc3cccc(F)c3)CC2)CC1	nt	-4%
O=c1c(-c2ccc(Cl)cc2)nc2cnc(N3CCOCC3)nc2n1C1CC1	nt	-9%
CC(=O)N/N=C(\C)c1cccc(C(F)(F)F)c1	0%	-1%
O=C(NCCCc1ccccc1)c1cc([N+](=O)[O-])ccc1Cl	-5%	-2%
NC(=O)c1nn(-c2cccc(Cl)c2)c(=O)cc1O	-9%	-9%
CS(=O)(=O)c1cnc2c(-c3ccsc3)cnn2c1N	-3%	0%
CCCCCn1c(CCC(=O)Oc2ccccc2OC)nc2c1c(=O)[nH]c(=O)n2CCCC	16%	0%
Cc1sc2ncn(CC(=O)OC(C)C)c(=O)c2c1C	nt	0%
CCCn1c(=O)c(C(=O)Nc2ncccc2C)c(O)c2ccccc21	12%	2%
COc1ccccc1NC(=O)CNC(=O)Cn1c(C)cc2ccccc2c1=O	11%	-3%
CC(C)CNC(=O)c1ccccc1Oc1ccccc1	-5%	0%
CCN1CCCC1CNC(=O)c1cc(OC)c(OC)c(OC)c1 (configuration not stated)	-3%	-4%
CC1(C)Cc2c(ccc3ccccc23)/C(=C/C(=O)N2CCCCC2)N1	-1%	0%
C=C[C@](C)(O)CCC1C(=C)CCC2[C@@](C)(CO)CCC[C@@]12C (some centres not stated)	nt	-6%
CCCCC(=O)Nc1ccc(C(=O)Nc2ccc(S(=O)(=O)N3CCCC3)cc2)cc1	2%	-10%
CCOC(=O)C(C)(C)N(Cc1cccc(C)c1)S(=O)(=O)c1cccc([N+](=O)[O-])c1	-13%	2%
Cc1ccc(S(=O)(=O)CCC(=O)OCC(=O)Nc2ccc(N3CCOCC3)cc2)cc1	1%	1%
CC1CCCCC1NC(=O)C1CCN(S(=O)(=O)N2CCCCCC2)CC1 (configuration not stated)	11%	-15%
COc1ccc(N2C(=O)CN=C2Nc2nc(C)cc(C)n2)cc1OC	-18%	-13%
O=C1CCCc2c1[nH]c1ccc(Br)cc21	-6%	-7%
CCN(c1ccccc1)S(=O)(=O)c1ccc(C(=O)NCCc2ccc(S(N)(=O)=O)cc2)cc1	-4%	-7%
COc1cc(OC)c(-n2c(C)cc(C=O)c2C)cc1Cl	4%	-1%
Cc1ccc(-c2nc(CSCC(=O)NC3CCN(Cc4ccccc4)CC3)c(C)o2)cc1	12%	-4%
COc1ccc(C(=O)Nc2ccccc2C(=O)NCCN2CCOCC2)cc1	-11%	-9%

Only part of the results is shown; most or all hits stand in other tables.
